# E coli growth = E. coli growth inhibition, primary screen, OD600. Escherichia coli growth, 23 h; active compounds read low. OD600 absorbance (no concentration beside the values). 0.21% of 330,000 active;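 active = OD600 absorbance below the run mean of sample wells minus 3.6 SD, in any replicate, cut at about 0.56 in these data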;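 note: stock transfer was 300 nL into about 60 µL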
# Active calls of the source: *; & = joins results of further samples. These rows are one share of the data; rates above refer to the full screens.
molecule | E coli growth
CC(C(O)c1ccccc1)N(C)C(=O)CCc1ccccc1 (stereo unspecified) | 0.71
O=C(CSc1ccccn1)NN=C/C=C/c1ccccc1 | 0.71
COC(=O)C1=C(C)N(CC2CC2)C(=NCCN2CCOCC2)NC1c1ccccc1 (stereo unspecified) | 0.67
CC(O)[C@@]1(O)CCC2C3CCC4CC(O)CC[C@]4(C)C3=CC[C@@]21C (stereo partly specified) | 0.71
CC1CCCC(=NNc2nc3ccccc3s2)C1 (stereo unspecified) | 0.66
Cc1ccc(C(=O)NN=Cc2ccc(S(=O)(=O)O)o2)c(Cl)c1 | 0.75
CCCCCCC1C(=NO)CCC1C(=O)OC (stereo unspecified) | 0.68
CCOc1cc(C=NNc2nnc(C)n2N)ccc1O | 0.66
CC1=NN(/C(=N/c2nnc(C)s2)Nc2ccccc2)[C@H](c2ccc(C)cc2)S1 | 0.72
Cc1cccc(C)c1-n1c(C)cc(C=NNC(=O)CC(=O)NC2CCCCC2)c1C | 0.75
CC(=NNC(=O)c1cccc(Cl)c1)C1C(=O)c2ccccc2C1=O | 0.61
CN1C(=O)C2C[C@@]3([C@@]45CC6C(=O)N(C)C(Cc7ccccc7)C(=O)N6C4Nc4ccccc45)c4ccccc4NC3N2C(=O)C1Cc1ccccc1 (stereo partly specified) | 0.72
Cc1sccc1C=NNC(=O)c1ccco1 | 0.7
CCN(CC)c1ccc(C=c2sc3nnc(-c4ccccc4C)n3c2=O)cc1 | 0.73
Cc1ccc(S(=O)(=O)NN=Cc2ccc(C)o2)cc1 | 0.69
CCC(=O)Nc1cccc(C2=NOC3(C2)CC(C(N)=O)N(C(=O)c2ccccc2C(=O)c2ccccc2)C3)c1 (stereo unspecified) | 0.71
Cc1ccccc1C(=O)OC1C(Cc2ccccc2)NS(=O)(=O)C2CC3C=C[C@]12O3 (stereo partly specified) | 0.71
O=C(NN=Cc1ccc(Sc2ccccn2)o1)c1cccc([N+](=O)[O-])c1 | 0.71
Cc1ccc(C=NNC(=O)c2ccc3nc[nH]c3c2)s1 | 0.68
CC(=NNC(=O)c1nnn(-c2nonc2N)c1CN1CCC(C)CC1)c1cccc(Br)c1 | 0.7
Cc1ccc(C=NNC(=O)CSc2ccccn2)o1 | 0.68
Cc1nc2ccccc2n1CC(=O)NN=C/C=C/c1ccccc1 | 0.69
CCN(CC)c1ccc(C=NNc2nc(C)cc(=O)[nH]2)c(O)c1 | 0.69
COc1ccc(C2CC(=O)C=C(c3c(C)cc(C)cc3C)C2)cc1 (stereo unspecified) | 0.68
O=C(NN=Cc1ccncc1)C1CC1(c1ccccc1)c1ccccc1 (stereo unspecified) | 0.65
CC(=NNS(=O)(=O)c1ccc(C)cc1)c1c[nH]c2ccccc12 | 0.69
Clc1ccc(CON=Cc2c(-c3ccccc3)nc3n2CCS3)c(Cl)c1 | 0.72
Cc1nn(C)cc1C=NNC(=S)Nc1ccccc1 | 0.75
C#CCOCCOCCOCCNc1nc(N2CCN(C(=O)C(CCC(=O)O)n3cc(C(N)CO)nn3)CC2)nc(N2CCN(C(=O)C(Cc3ccc(O)cc3)n3cc(C(N)C(C)CC)nn3)CC2)n1 (stereo unspecified) | 0.67
CC(=NNC(=O)c1ccc(O)cc1)c1cccc([N+](=O)[O-])c1 | 0.59
COC(CNC(=O)C(CSCc1ccccc1)N1Cc2ccccc2C1=O)OC (stereo unspecified) | 0.7
Cc1ccc(C)c(S(=O)(=O)NN=Cc2cccnc2)c1 | 0.64
COc1cc(C=NNc2nc3ccccc3s2)ccc1O | 0.69
O=C1C(CCC(O)c2ccc(F)cc2)C(c2ccc(O)cc2)N1c1ccc(F)cc1 (stereo unspecified) | 0.68
CSc1ccc(C=NNC(=O)CN2CCN(Cc3ccc(Cl)cc3)CC2)cc1 | 0.7
Clc1ccc(CON=Cc2cccs2)cc1 | 0.67
O=C(NCCCN1CCOCC1)C(=O)NN=Cc1ccccc1 | 0.68
CC(=NN)c1c(-c2ccccc2)c2cc(C)ccc2[nH]c1=O | 0.69
COc1ccc(OC)c(C=NNC(=O)c2ccc(COc3ccc(C)cc3[N+](=O)[O-])o2)c1 | 0.75
COc1ccc(C(C)=NNC(=O)C2C3CCCCC32)c(OC)c1 (stereo unspecified) | 0.69

# Rewritten with each value named: 4 of the compounds above.
COC(CNC(=O)C(CSCc1ccccc1)N1Cc2ccccc2C1=O)OC (stereo unspecified)
  E coli growth: 0.7
Cc1ccc(C)c(S(=O)(=O)NN=Cc2cccnc2)c1
  E coli growth: 0.64
COc1cc(C=NNc2nc3ccccc3s2)ccc1O
  E coli growth: 0.69
O=C1C(CCC(O)c2ccc(F)cc2)C(c2ccc(O)cc2)N1c1ccc(F)cc1 (stereo unspecified)
  E coli growth: 0.68

# Remaining list, next part
molecule | E coli growth
NC1=NCC(Cc2ccccc2)N1CC1CCCCC1 (stereo unspecified) | 0.68
O=C(NN=Cc1c(F)c(F)c(F)c(F)c1F)c1cc(-c2ccccc2)nc2ccccc12 | 0.69
Cc1occc1C(=O)NN=Cc1ccc2c(c1)OCO2 | 0.66
CCN1C(=O)C2C(C)C3=C4C(CC5C(=O)N(CC)C(=O)C5C4[C@@]4(C)C(=NCC5CC5)OC(=O)N4C3=O)C2C1=O (stereo partly specified) | 0.63
C/C(C=NNC(=O)Cc1cc(=O)[nH][nH]1)=C\c1ccccc1 | 0.73
COc1ccc(C2CC(c3ccccc3)=NN2c2ccc(C=NNC(=O)c3ccncc3)cc2)cc1 (stereo unspecified) | 0.82
O=C(ON=C1CCSc2ccccc21)c1ccccc1 | 0.69
C#CCOCCOCCOCCNc1nc(N2CCN(C(=O)C(CCCCN)n3cc(C(N)C(C)CC)nn3)CC2)nc(N2CCN(C(=O)C(C(C)CC)n3cc(C(N)CC(C)C)nn3)CC2)n1 (stereo unspecified) | 0.66
O=C(CCCOc1ccc(Cl)cc1Cl)NN=Cc1ccc(Cl)cc1 | 0.72
CCc1ccccc1C1=CC(=O)CC(c2ccc(OC)cc2)C1 (stereo unspecified) | 0.72
C(=NNC1=Nc2cccc3cccc1c23)c1cccnc1 | 0.64
O=C(COc1cccc2cccnc12)NN=Cc1ccc(O)cc1 | 0.69
O=C1CCCC1=c1sc(=Cc2cccnc2)c(=O)n1-c1ccccc1 | 0.67
CCOc1cc(C=NNc2cccc(C(=O)O)c2)ccc1OC(=O)c1ccccc1 | 0.68
CCN1CC(=NS(=O)(=O)N=C2CN(CC)C(=O)N2CC)N(CC)C1=O | 0.74
C[C@@]12C(=O)N(CC3CCCO3)CC(=O)N1C1c3cc(Cl)ccc3OCC1C2c1ccccc1 (stereo partly specified) | 0.7
COc1ccc(S(=O)(=O)N(C)CC2Oc3c(NC(=O)Nc4ccc(C(F)(F)F)cc4)cccc3C(=O)N(C(C)CO)CC2C)cc1 (stereo unspecified) | 0.69
Cc1ccccc1C(=O)NN=C1SCC(=O)N1Cc1ccco1 | 0.69
CN1C(=CC(=O)Nc2cccnc2)c2ccccc2CC1(C)C | 0.69
O=C(COc1cccc2ccccc12)NN=Cc1ccco1 | 0.68
COc1ccc(C2C(=C(O)c3ccccc3)C(=O)C(=O)N2c2ncccn2)cc1OC (stereo unspecified) | 0.71
COCc1ccccc1C1=CC(=O)CC(c2ccc(F)cc2)C1 (stereo unspecified) | 0.68
CCOc1ccccc1C=NNC(=O)c1ccc(Cn2cc([N+](=O)[O-])cn2)o1 | 0.79
COc1ccc(C=NNc2nc(C)cc(-c3ccccc3)n2)c(OC)c1 | 0.62
COC(=O)c1cccc(C23CC4(C2)C(CN(Cc2ccc(C(F)(F)F)cc2)C4c2ccccc2)C3c2ccc(C(F)(F)F)cc2)c1 (stereo unspecified) | 0.68
COc1ccc(/C=C(\NC(=O)c2ccccc2)C(=O)NN=Cc2ccncc2)cc1 | 0.72
CCCCNC(=O)N(O)C1N(N=Cc2ccccc2OC)C(=S)SC1(C)C (stereo unspecified) | 0.69
O=C(NN=Cc1cc(Br)c(Br)s1)c1ccncc1 | 0.69
CN(C)C=Nc1ncc(C(=O)c2ccccc2)s1 | 0.68
CCOc1ccc(C=NNC(=O)C(O)c2ccccc2)c(O)c1 (stereo unspecified) | 0.7
CCC(C)=C1SC(N2CCN(C(C)=O)CC2)=NC1=O | 0.68
CCCCNC(=S)NN=Cc1sccc1C | 0.66
CC(=NN1CCN(C)CC1)c1ccc(OC(F)F)cc1 | 0.71
COc1ccc(C=NOCC(=O)Nc2cc(C)on2)cc1OC | 0.69
COc1ccc(CC2CN3C(=NCC3C)N2CC(C)NC(=O)CCC2CCCCC2)cc1 (stereo unspecified) | 0.67
CCOC1OC(C(=O)NCc2nc3ccccc3[nH]2)=CC(c2cn(C(C)=O)c3ccccc23)C1CCCO (stereo unspecified) | 0.6&0.68
CC(=NNC(=O)c1nnn(-c2nonc2N)c1CSc1ccccc1)c1cccnc1 | 0.67
COC(=O)C1=C(C(=O)OC)[N+]2=C3N(C(=O)NC2(C)C)C(CO)C[C@@]32c3ccccc3N(Cc3ccccc3)C12 (stereo partly specified) | 0.7
CC(=NNC(=O)c1ccncc1)c1ccccc1 | 0.67
CC(C)c1c(C(=O)NN=Cc2cccc3ccccc23)nnn1-c1nonc1N | 0.69
O=C(CN1C(=O)SC(=Cc2ccc(O)cc2)C1=O)c1ccccc1 | 0.71
CC(=NNC(=S)Nc1ccccc1C)c1cc2ccccc2o1 | 0.67
COc1cc(C=NS(=O)(=O)CCc2ccccc2)ccc1O | 0.7
CC(=NOC(=O)C1CC1)C1CC1c1ccc(F)cc1 (stereo unspecified) | 0.64
O=C(NN=Cc1ccco1)c1cc2ccccc2o1 | 0.7
O=C(NN=Cc1ccc2cccc(OCc3ccccc3)c2n1)c1ccc(Cl)cc1 | 0.7
COc1ccc(NC(=O)N(C)CC2Oc3ccc(NC(=O)Nc4ccc5c(c4)OCO5)cc3C(=O)N(C(C)CO)CC2C)cc1 (stereo unspecified) | 0.7
C#CCOCCOCCOCCNc1nc(N2CCOCC2)nc(N2CCN(C(=O)C(Cc3cc4ccccc4[nH]3)n3cc(C(N)CC(C)C)nn3)CC2)n1 (stereo unspecified) | 0.67
COc1ccc(C=NNC(=O)c2ccncc2)c(C(=O)O)c1OC | 0.68
CC(O)Cc1cn(C(CCCCNC(=O)OC(C)(C)C)C(=O)N2CCN(C(=O)OC(C)(C)C)CC2)nn1 (stereo unspecified) | 0.68
CCCC=NNC(=O)c1ccccc1O | 0.68
CCCCCCCCCCCCN1C(CC(C)=O)c2cc(F)ccc2S1(=O)=O (stereo unspecified) | 0.71
CC(=NOCc1ccc(C#N)cc1)c1ccccc1 | 0.69
CC(C)c1c(C(=O)NN=Cc2ccsc2)nnn1-c1nonc1N | 0.69
COc1ccc(-n2c(O)c(C=NNS(=O)(=O)c3cc(C)ccc3C)c3ccccc3c2=O)cc1OC | 0.7
CC(=O)N1C(C)C=C[C@]1(Cc1ccccc1)C(=O)NCCN1CCOCC1 (stereo partly specified) | 0.69
NC(CS(=O)(=O)c1ccc(F)cc1)=NO | 0.66
Cc1cccc(S(=O)(=O)c2c(N)n(N=Cc3cccnc3)c3nc4ccccc4nc23)c1 | 0.71
C=CCOc1ccc(C=NNC(=O)CN2CCOCC2)cc1OCC | 0.65
COc1cc(C=NNC(=O)C(C)Nc2n[nH]c(=O)[nH]c2=O)ccc1O (stereo unspecified) | 0.64

# An excerpt from above in order of count of non-hydrogen atoms, smallest number first:
molecule | E coli growth
CN(C)C=Nc1ncc(C(=O)c2ccccc2)s1 | 0.68
COc1ccc(-n2c(O)c(C=NNS(=O)(=O)c3cc(C)ccc3C)c3ccccc3c2=O)cc1OC | 0.7
COc1ccc(S(=O)(=O)N(C)CC2Oc3c(NC(=O)Nc4ccc(C(F)(F)F)cc4)cccc3C(=O)N(C(C)CO)CC2C)cc1 (stereo unspecified) | 0.69

# (cont.)
molecule | E coli growth
CC(Oc1cccc2cccnc12)C(=O)NN=Cc1ccc2c(c1)OCO2 (stereo unspecified) | 0.72
O=C(NN=Cc1ccc2ncccc2c1)c1cc(-c2cccs2)nc2ccccc12 | 0.71
CCOC1OC(C(=O)NCc2ccccc2)=CC(c2ccc3c(c2)OCO3)C1CCCO (stereo unspecified) | 0.69&0.71
CC(COc1ccc(C=Cc2ccccc2)cc1)[N+](C)(C)C (stereo unspecified) | 0.63
CC(=NNC(=O)CNC(=O)c1ccccn1)c1ccccc1 | 0.67
O=C(NN=Cc1cccnc1)c1ccc(NC(=O)c2ccc(Cl)cc2)cc1 | 0.63
COC(=O)[C@]1(Cc2ccccc2)NC(c2ccc(-c3ccc4c(c3)OCO4)cc2)C2C(=O)N(C)C(=O)C21 (stereo partly specified) | 0.71
COc1cc(C=NNC(=O)c2ccc(NS(=O)(=O)c3cccs3)cc2)cc(OC)c1O | 0.67
CCCCCCCCCCCCN1C(CC(=O)OC)c2cc(C(F)(F)F)ccc2S1(=O)=O (stereo unspecified) | 0.68
COC(=O)c1ccc(C=NNC(=O)c2cccc(F)c2)cc1 | 0.71
Cc1cc(NN=Cc2ccccc2)nc(N2CCOCC2)n1 | 0.69
O=C(CSc1nnc(-c2ccc(Cl)cc2)n1-c1ccccc1)NN=Cc1ccccc1C(=O)O | 0.66
COc1ccc(C2C3C(=O)N(C(C)(C)C)C(=O)C3[C@]3(Cc4ccccc4)C(=O)N(c4cccc(Cl)c4)C(=O)N23)cc1 (stereo partly specified) | 0.72
CCOC1OC(C(=O)NC2CC2)=CC(c2ccccc2)C1CCCO (stereo unspecified) | 0.69&0.7
Cc1[nH]c2ccccc2c1C=NNC(=O)c1cccc(Br)c1 | 0.64
O=C(NN=Cc1ccc(Br)o1)c1ccc2c(c1)OCCO2 | 0.66
CC1CN(C(C)CO)C(=O)Cc2cc(NS(=O)(=O)c3ccccc3)ccc2OC1CN(C)Cc1ccc(-c2ccccc2)cc1 (stereo unspecified) | 0.73
Cc1ccc(C(=O)NNC(=O)CCCN2C(=O)C(=Cc3ccccc3Cl)SC2=S)cc1 | 0.73
O=C(CSc1nnc(SCc2ccc(Cl)cc2)s1)NN=Cc1c[nH]c2ccccc12 | 0.66
CC(C)(C)c1ccc(NN=C(C#N)S(=O)(=O)C(C)(C)C)cc1 | 0.69

# Assay outcomes: PubChem, ICCB-Longwood Screening Facility, Harvard Medical School
